# Screening results from PubChem BioAssay.
# CSC inhib = cancer stem cell viability inhibitors, primary screen, luminescence; cancer stem cell-like cells viability; 300,000 tested, 1.1% active; inhibition, % at 7.5 µM;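 active means mean at 75% or more and at least half the replicates too; inconclusive means mean and replicates disagree; tested in HMLE shEcad cells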;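 further: 0% = median of negative and 100% = median of positive control wells; the first replicate is given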
# UUG fidelity = modulators of yeast start codon fidelity, primary screen, whole organism, S. cerevisiae, single point, plate reader. S. cerevisiae UUG-firefly luciferase reporter, luminescence/redox ratio. activity score, % at 18.7 µM. 350,000 tested, 0.13% active. AID 602363, 2012;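 active means replicate mean at a twofold rise or more, about +100% in these data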;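 further: firefly luciferase made from a UUG start codon reports start codon fidelity; reporter light over untreated wells divided by growth signal over untreated wells; some hits fall short of that in this replicate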
# PABP polyA inh = PABP poly(A) RNA binding inhibitors, primary screen, biochemical, fluorescence polarization, uHTS; 290,000 tested, 1% active; Polyadenylate-binding protein 1 (Homo sapiens), P11940; inhibition, % at 35 µM;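 active means 50% or more with normal probe brightness, or confirmed in later tests; inconclusive means above 50% with abnormal brightness, or retests that disagree; inactive means below 50% or failed in later tests; about a fifth of its hits are not listed in these tables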;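 further: calls also rest on retests at 20 µM and on dose response follow-up; controls were probe without protein and protein plus probe with vehicle; some compounds called inactive have numbers as strong as hits; many hits fall short of the cut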
# HIV Env fusion = inhibitors of HIV-1 Env-driven cell-cell fusion, primary screen, HeLa-JRFL effector, CEM21 target cells, luciferase | inhibition, % at 12.3 µM | 360,000 tested, 1.1% active;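 active means mean replicate inhibition score of at least 50 and every replicate individually at or above 50; inconclusive means only one of the two criteria met; inactive means mean below 50 and not all replicates reaching 50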;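 further: 0% = plate neutral controls and 100% = maraviroc near 300 nM; one replicate is shown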
# MT1-MMP act inh = blockers of MT1-MMP proenzyme processing, primary screen, HT1080 RFP-PRO-GFP cells, GFP/RFP fluorescence; Matrix metalloproteinase-14 (Homo sapiens), P50281; GFP/RFP ratio fluorescence, overnight; percent of plate control window, DMSO zero; GFP/RFP ratio change, % at 20 µM; 360,000 tested, 0.061% active; AID 651647, 2012;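 active means GFP/RFP ratio change of at least 30% with cell ATP level not reduced by more than half and red fluorescence within 50% of control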; further: strong numbers were not always called active
#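 Test system: HT1080 cells expressing an RFP-PRO-GFP fluorescent reporter construct / Compound dosing: single-point 20 µM compound, 1% DMSO / Schedule: cells overnight before dosing, compound overnight, 37 °C, 5% CO2 / Evaluation: GFP/RFP fluorescence ratio / Control set: DMSO and RFP-L50D-GFP cell wells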
# Rce1 inh = yeast Rce1p protease inhibitors, primary screen, biochemical, fluorescence, cell-free homogeneous. CAAX prenyl protease 2 (Saccharomyces cerevisiae (strain ATCC 204508 / S288c)), Q03530. yeast membranes, quenched prenylated peptide cleavage fluorescence. calls only. 290,000 tested, 0.27% active;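 active means fall in fluorescence gain of 50% or more versus controls, with final raw signal at or below 3038400; inconclusive means same 50% fall but final raw signal above 3038400; inactive means fall in fluorescence gain under 50%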;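 further: plate controls were neutral control wells for no effect and wells lacking membranes for full effect; tested at 10 µM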
# Target sequence (Q03530 whole entry, looked up): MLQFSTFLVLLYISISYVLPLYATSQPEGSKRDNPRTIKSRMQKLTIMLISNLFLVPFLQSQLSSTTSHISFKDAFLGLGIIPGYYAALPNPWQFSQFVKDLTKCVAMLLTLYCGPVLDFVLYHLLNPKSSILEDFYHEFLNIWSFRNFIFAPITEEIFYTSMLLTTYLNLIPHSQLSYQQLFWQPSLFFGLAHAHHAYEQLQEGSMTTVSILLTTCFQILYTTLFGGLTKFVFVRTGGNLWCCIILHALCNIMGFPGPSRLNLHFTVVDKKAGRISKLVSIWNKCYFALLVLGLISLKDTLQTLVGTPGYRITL
# eIF4H inh = human eIF4H binding inhibitors, primary screen, translation initiation inhibitor project, biochemical, uHTS, fluorescence polarization | inhibition, % at 35 µM | eIF4H fluorescence polarization binding assay | 290,000 tested, 0.94% active;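 active means 50% or more with normal probe brightness, or confirmed in later tests; inconclusive means above 50% with abnormal brightness, or retests that disagree; inactive means below 50% or failed in later tests; about a fifth of its hits are not listed in these tables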;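 further: calls also rest on retests at 20 µM and on dose response follow-up; 0% = protein and probe with vehicle and 100% = probe without protein; strong numbers were not always called active; many hits fall short of the cut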
# eIF4H inh retest = further read-out of eIF4H inh, marked with its call; inhibition, %; compound at 20 µM; confirmation average;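 mean of two retest wells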
# PABP polyA inh retest = further read-out of PABP polyA inh, marked with its call; inhibition, %; compound at 20 µM; confirmation repeats;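 mean of two retest wells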
# MT1-MMP act inh RFP = second read-out of MT1-MMP act inh, no call of its own (marks repeat the call); RFP signal change, %; measured here: RFP expression control read;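 0 = vehicle wells; hits needed this value within 50% of zero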
# Starred values were filed as active, the others as inactive; i = inactive; ? = inconclusive; / = not tested or not shown; + = active, no number; & = joins results of further samples. The list is partial; rates above refer to the full screens.
SMILES,CSC inhib,UUG fidelity,PABP polyA inh,HIV Env fusion,MT1-MMP act inh,MT1-MMP act inh RFP,Rce1 inh,eIF4H inh,others
O=C1NC(=O)[C@]2(Cc3ccccc3N3CCN(c4ccccc4)CC32)C(=O)N1Cc1ccccc1 (stereo not given in full),-17.9,-8.4,55.5,-180.8,-7.2,-0.8,i,32.1,eIF4H inh retest=20.4;PABP polyA inh retest=15.8
Cc1cc(/C=C2/C(=O)NC(=O)N(Cc3ccco3)C2=O)c(C)n1-c1ccccc1,/,/,-4.6,/,-13.9,5.2,i,?,
O=C1NC(=S)N(c2ccc(F)cc2)C(=O)/C1=C/c1ccco1,3.4,/,47.8,/,/,/,i,49.8,
C[C@]12CCC3C(CC[C@H]4[C@@H](O)[C@H](O)CC[C@]34C)C1CCC2=O (stereo not given in full),/,8.3,/,-26.4,-2.0,1.2,/,/,
Cc1c(NP(=O)(C(C)(C)C)C(C)(C)C)c(=O)n(-c2ccccc2)n1C,5.3,/,13.3,-2.2,2.7,0.6,i,5.9,
OC1CCCCC1N1CCC(c2ccccc2)CC1 (stereo not given),-0.7,-15.5&1.3,2.9,4.8,-0.1,5.0,i,-9.2,
COC(=O)C1=C(c2ccc(OC)c(OC)c2)C[C@@H]2CC[C@H]1N2C(=O)NCCOc1ccccc1Cl,-15.3,11.7,/,-45.8,0.7,0.7,/,/,
COC(=O)C1=C(c2ccc(C(C)=O)cc2)C[C@@H]2CC[C@H]1N2C(=O)N1CCC(C)CC1,1.2,2.0,/,1.7,1.2,1.7,/,/,
c1ccc2c(CN3CCCCCCC3)c[nH]c2c1,6.7,8.3,-2.2,34.3,1.6,2.9,i,10.3,
COc1ccc(-n2c(O)c(C=NCCN(C)C)c(=O)[nH]c2=O)cc1,-3.6,-18.4,-0.9,-32.9,-1.4,-0.3,i,5.3,

# Quoted from the entries so far for reference:
SMILES,CSC inhib,UUG fidelity,PABP polyA inh,HIV Env fusion,MT1-MMP act inh,MT1-MMP act inh RFP,Rce1 inh,eIF4H inh,others
COC(=O)C1=C(c2ccc(OC)c(OC)c2)C[C@@H]2CC[C@H]1N2C(=O)NCCOc1ccccc1Cl,-15.3,11.7,/,-45.8,0.7,0.7,/,/,
COC(=O)C1=C(c2ccc(C(C)=O)cc2)C[C@@H]2CC[C@H]1N2C(=O)N1CCC(C)CC1,1.2,2.0,/,1.7,1.2,1.7,/,/,

# 2 entries drawn at random from those above, as already listed:
SMILES,CSC inhib,UUG fidelity,PABP polyA inh,HIV Env fusion,MT1-MMP act inh,MT1-MMP act inh RFP,Rce1 inh,eIF4H inh,others
Cc1cc(/C=C2/C(=O)NC(=O)N(Cc3ccco3)C2=O)c(C)n1-c1ccccc1,/,/,-4.6,/,-13.9,5.2,i,?,
COC(=O)C1=C(c2ccc(OC)c(OC)c2)C[C@@H]2CC[C@H]1N2C(=O)NCCOc1ccccc1Cl,-15.3,11.7,/,-45.8,0.7,0.7,/,/,

# Continuation.
SMILES,CSC inhib,UUG fidelity,PABP polyA inh,HIV Env fusion,MT1-MMP act inh,MT1-MMP act inh RFP,Rce1 inh,eIF4H inh,others
CC(C)(C)n1cccc1/C=C1\C(=O)NC(=O)N(c2ccccc2)C1=O,/,-11.7,55.2,-1.1,1.4,4.5,i,128.1,eIF4H inh retest=-8.8;PABP polyA inh retest=1.0
Cn1c(O)c(C=Nc2ccc(Cl)cc2)c(=O)n(C)c1=O,-12.6,4.1,22.7,/,1.1,1.4,i,23.6,
c1ccc(NC2=NCCCS2)cc1,3.3,-15.7,4.4,8.1,0.6,-0.6,i,2.1,
COc1cccc(C2CCN(C)C2)c1 (stereo not given),/,-21.3,/,3.0,3.1,8.0,/,/,
O=C(O)C1CSC(c2cccnc2)N1 (stereo not given),-4.6,-12.7,13.1,/,-1.9,1.9,i,-2.5,
CCOC(=O)c1[nH]c2ccc(OC)cc2c1C(SCC(=O)O)c1ccc(C(F)(F)F)cc1 (stereo not given),5.0,-0.3,4.8,-13.0,0.1,-5.0,i,-5.1,
c1ccc2c(CN3CCN(C4CCCCC4)CC3)c[nH]c2c1,1.7,14.0,-9.4,/,-2.8,5.1,i,4.7,
O=C(c1cccc(C(F)(F)F)c1)C1CCCN(Cc2ncc[nH]2)C1 (stereo not given),-14.8,-8.7,-9.8,-1.3,0.5,-1.6,i,5.5,
COc1ccc(NC(=O)N2Cc3ccccc3-n3nncc3C2)cc1,/,-15.2,/,?,3.7,0.0,/,/,
O=C1NC(=O)C(=Cc2ccco2)C(=O)N1,/,-21.6,/,12.7,-2.4,2.6,/,/,
COc1ccc2nc(/N=C/c3c(O)n(-c4cccc(Cl)c4)c(=O)[nH]c3=O)sc2c1,-12.0,/,?,/,-47.9,14.0,i,?,
O=C(CSC1c2ccccc2-c2ccccc21)N/N=C/c1ccccc1C(=O)O,-2.1,/,1.3,3.6,0.3,5.0,i,-3.5,
NC(=O)CN1CCCC1=O,-10.6,-10.6,-2.5,/,-0.1,3.6,i,-13.8,
Cc1cc(/C=C2\C(=O)NC(=O)N(c3ccc(F)cc3)C2=O)c(C)n1-c1ccc(C(=O)O)cc1,-8.5,/,50.8*,1.8,-5.0,-0.9,i,24.9,
Cc1ccc(N2C(=O)CC(=O)NC2=O)cc1,-12.5,-11.8,?,/,-16.8,8.0,i,?,
Cc1cc(NC(=O)COC(=O)c2c(C)nn(Cc3ccccc3)c2Cl)no1,-9.1,-21.8,-5.0,-25.7,6.5,4.4,i,-2.4,
Cc1nccc2c1[nH]c1ccccc12,-3.3,-28.7,-2.7,-15.6,-3.2,-1.9,+,17.0,
CCOP(=O)(C#Cc1ccccc1)C(O)c1ccc(Br)cc1 (stereo not given),-14.6,/,-8.5,17.9,-0.2,0.3,i,-1.9,
NC(=O)c1cc([N+](=O)[O-])cc([N+](=O)[O-])c1,/,-7.1,/,12.6,-1.1,2.1,/,/,
CCOP(=O)(OCC)C(NC(=O)c1ccccc1C)C(Cl)(Cl)Cl (stereo not given),/,/,3.9,/,-1.1,4.4,i,12.7,
COC(=O)C1=C(c2ccc(Cl)c(C(F)(F)F)c2)C[C@@H]2CC[C@H]1N2C(=O)NCCOc1ccccc1Cl,46.4,-12.7,/,/,-4.6,-10.3,/,/,
O=c1ccc2cc(OC3O[C@H](CO)[C@@H](O)[C@H](O)[C@H]3O)c(O)cc2o1 (stereo not given in full),-9.5,-9.5,/,18.3,4.0,-3.9,/,/,
O=C1CN=C(c2ccccc2)c2ccccc2N1Cc1ccc(C(F)(F)F)cc1,-7.7,-11.3,6.8,76.1*,-3.1,-10.2,i,-2.7,
O=c1[nH]c(=O)n(Cc2ccccc2)c(O)c1C=NCCN1CCNCC1,0.3,-10.9,-10.9,-17.1,-6.0,-0.5,i,4.6,
CN1C(=O)C(=Cc2ccc(N3CCOCC3)c([N+](=O)[O-])c2)C(=O)N(C)C1=O,5.8,/,7.9,/,/,/,i,12.8,
CN(CCc1ccccc1)Cc1c[nH]c2ccccc12,-6.5,-3.8,-0.3,0.5,2.1,3.1,i,1.7,
C=C[C@H]1CN2CC[C@H]1C[C@H]2[C@H](O)c1ccnc2ccccc12,-7.0,2.1,/,/,0.5,2.9,/,/,
CN1C(=O)CC(c2ccccc2)Nc2ccccc21 (stereo not given),-20.0,-18.3,14.3,-6.1,5.8,3.9,i,-8.4,
Cc1ccccc1Cc1c(C)nc2nc(SCC(=O)N3CCC4(CC3)OCCO4)nn2c1C,/,-9.6,-8.9,10.8,-4.5,-6.3,i,3.7,
C[N+]1(C)C2CC(OC(=O)[C@H](CO)c3ccccc3)CC1C1OC12 (stereo not given in full),-10.7,12.0,/,8.3,0.8,1.0,/,/,
CC(=O)OC1CC[C@]2(C#N)[C@H]3CC[C@]4(C)[C@H](C5C=CC(=O)O5)CCC4(O)C3CCC2(O)C1 (stereo not given in full),48.3,-0.7,5.1,-124.4,5.1,5.7,i,-1.0,
CCc1c(-c2ccccc2)nc2ccccc2c1C(=O)N1CCC2(CC1)OCCO2,-18.8,-5.7,/,-3.9,-6.7,0.5,i,/,
CCN1C[C@]2(COC)CC[C@H](OC)[C@@]34C1[C@]1(OCO[C@@]15C[C@H](OC)[C@H]1C[C@@H]3[C@@H]5[C@H]1OC)[C@@H](O)[C@H]24,-0.3,8.9,/,11.3,-1.0,4.7,/,/,
CCc1ccc2nc(N3CCC(C(=O)N4CCC5(CC4)OCCO5)CC3)sc2c1,/,0.7,82.3*,-15.4,-1.9,-21.3,i,2.3*,eIF4H inh retest=102.6*;PABP polyA inh retest=79.6*
N#CC(C#N)=Cc1ccc(N2CCOCC2)cc1,-14.6,-0.5,-15.4,-0.9,-7.0,-1.9,i,14.6,
O=C1C2CCN(CC2)C1(CO)CO,/,-4.9,/,3.0,-1.3,2.0,/,/,
C[n+]1c(-c2ccccc2)cc(CCCCc2cc(-c3ccccc3)[n+](C)c(-c3ccccc3)c2)cc1-c1ccccc1,22.9,-15.7,-3.6,-15.9,1.6,1.9,i,27.0,
O=C(NCc1cccnc1)Nc1ccccc1Cl,-7.7,-15.3,3.1,-22.9,-1.3,1.7,i,-5.2,
Cc1cc(=O)n(-c2ccccc2)n1-c1ccccc1,-9.2,/,-1.3,13.0,-3.0,-0.4,i,-2.5,
CCOP(=O)(OCC)C(NC(=O)c1ccc(C)cc1)C(Cl)(Cl)Cl (stereo not given),1.2,-4.5,8.3,10.0,0.6,3.1,i,2.4,
CC1=[N+]([O-])C2(N)CCc3nonc3C2(O)C1 (stereo not given),-10.2,-1.9,-0.1,-5.2,-3.0,3.5,i,-11.2,
CN1CC(C(=O)c2ccc(Cl)cc2)C(c2ccccc2F)C1 (stereo not given),-13.6,/,10.2,7.9,-11.2,-5.7,i,0.1,
CN1CCc2nc3sc(C(=O)NC(C)(C)C)c(N)c3cc2C1,/,1.6,26.0,-33.5,-3.1,0.3,i,31.1,
C1=C(c2ccccc2)CCNC1,4.4,-19.3,6.3,16.7,-0.7,1.8,i,-5.2,
COCCN(C(=O)COC(=O)Cc1ccccc1)c1c(N)n(Cc2ccccc2)c(=O)[nH]c1=O,-0.3,-12.3,/,-27.9,0.9,2.1,i,/,
CCOC(=O)C1CCCCC12C(C#N)=C(N)Oc1n[nH]c(C)c12 (stereo not given),3.1,-13.5,2.8,-60.6,-2.0,-0.3,i,-1.8,
CCc1ccc(N2C(=O)NC(=O)/C(=C/c3cccn3CCOc3ccc(C(C)CC)cc3)C2=O)cc1 (stereo not given),/,/,-1.8,-23.0,-23.3,-3.1,i,?,
C=CC1CN2CCC1CC2[C@@H](OC(=O)c1ccc(OC)cc1)c1ccnc2ccccc12 (stereo not given in full),0.1,1.2,-7.6,-21.6,-4.8,-1.3,i,2.4,
CCn1c(O)c(C=NCCc2c[nH]c3ccccc23)c(=O)[nH]c1=O,-11.4,-26.7,-1.0,-73.9,1.0,0.9,i,-0.3,
Cc1ccc2nc(N3CCC(C(=O)N4CCC5(CC4)OCCO5)CC3)sc2c1,/,-9.7,-6.4,/,0.2,-12.5,i,0.8,
